Compound activity from PubChem.
gsp antag: antagonists of gsp mutant (McCune-Albright syndrome). hit rate 0.4% among 340,000. Potency, µM (highest dose often 76.9 µM), inactives show at the highest dose activity change, negative = inhibition, most hits filed as inhibitors. gsp-mutant cells, cAMP HTRF, 30 min; control for the full effect not named in the record. AID 624288; active = falling curve of any shape with a large fitted effect; inconclusive = falling curve, mostly with a smaller effect; inactive = flat or rising curve; cell line not stated here;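 note: intracellular cAMP measured with PDE inhibitor Ro 20-1724 present during compound exposure; potency is the fitted concentration of half-maximal effect; % is set by controls: 0 for no effect and ±100 for the full control effect; nearly all actives have a fitted effect of over 65% in size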
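Measurement of cellular cAMP by homogeneous time-resolved fluorescence following a 30 min compound exposure at 37C. The PDE inhibitor […] was present throughout; the assay buffer was DPBS with 0.05% BSA and 0.005% Tween 20.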
gsp ag: activates gsp, the McCune-Albright syndrome mutation | gsp mutant cells, cAMP HTRF, 30 min; control for the full effect not named in the record | Potency, µM (doses to about 76.9 µM), for the others: at the top dose activation (cAMP increase), hits mostly activators | hit rate 0.13% among 340,000 | AID 624287; active = well fitted activation curve with a large enough effect; inconclusive = small, poorly fitted or top-dose-only effect, or another doubt; inactive = no such curve, though single readings can be large or run the other way; cell line not stated here;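 note: phosphodiesterase inhibitor Ro 20-1724 added with compounds to block cAMP breakdown; potency is the fitted concentration of half-maximal effect; nearly all actives have a fitted effect of over 60% in size; about a fifth of the inactives were tested at one dose only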
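Cells stably selected in G418 were plated at 2000/well, grown 16-24 hr, then given compounds in DMSO with the PDE inhibitor […] (300 uM solution added) for 30 min at 37C; cAMP was read by HTRF.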
Six1-Eya2 blk: inhibitors of human Six1/Eya2 interaction; Q15475+O00167; AlphaScreen GST-Six1/His-Eya2 binding, biochemical; stronger effect = lower value; control for the full effect not named in the record; activity change, % (test concentration not listed); hit rate 0.56% among 360,000; in the data active = activity change below about -65%; inconclusive = about -30% to -65%; inactive = above about -30%; note: % is set by controls: 0 for no effect and ±100 for the full control effect; compound concentration not given in the record
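Compounds are tested against tagged Six1 and Eya2 proteins bridged by glutathione donor and nickel acceptor beads; after a one-hour incubation at 37 °C without light, AlphaScreen emission is recorded.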
CtBP-E1A inh: CtBP/E1A binding inhibition. hit rate 0.49% among 340,000. AlphaScreen GST-E1A/His-CtBP binding, 1536-well; stronger effect = lower value; control for the full effect not named in the record. activity change, % (test concentration not listed); in the data active means activity change below about -65%; inconclusive means about -30% to -65%; inactive means above about -30%; note: % is set by controls: 0 for no effect and ±100 for the full control effect; compound concentration not given in the record
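Steps: dispense buffer (Tris pH 8.0, NaCl 300 mM, TCEP 1 mM, BSA, Tween 20); add 5X protein mix (GST-E1A, His-CtBP, 125 nM each); pin 23 nL compound; 2 h at 37 °C, dark; add 5X beads (50 ug/mL); 1 h; read.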
D2 potentiator: positive allosteric modulators of human D2 dopamine receptor; potentiation, % (test concentration not listed); hit rate 0.23% among 360,000; DiscoveRx D2 beta-arrestin cells, luminescence, 90 min; 100% = 57 uM dopamine signal; active = potentiation of 50% or more; inconclusive = 30% to 50%; inactive = 30% or less;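 note: compound concentration not given in the record; tested on top of an EC20 dose of dopamine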
Target sequence (P14416 whole entry, looked up): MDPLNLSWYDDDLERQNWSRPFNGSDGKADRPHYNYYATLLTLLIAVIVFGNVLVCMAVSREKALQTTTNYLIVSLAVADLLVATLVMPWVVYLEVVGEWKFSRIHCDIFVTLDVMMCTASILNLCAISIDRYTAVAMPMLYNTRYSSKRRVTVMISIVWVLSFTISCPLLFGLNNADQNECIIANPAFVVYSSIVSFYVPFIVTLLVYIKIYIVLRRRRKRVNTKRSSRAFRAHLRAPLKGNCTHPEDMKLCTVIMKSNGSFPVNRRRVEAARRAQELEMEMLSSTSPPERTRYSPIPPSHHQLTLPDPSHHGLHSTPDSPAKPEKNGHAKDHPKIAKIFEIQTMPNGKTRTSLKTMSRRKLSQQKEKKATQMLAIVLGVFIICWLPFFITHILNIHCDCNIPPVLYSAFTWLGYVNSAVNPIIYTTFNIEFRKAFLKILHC
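D2 cells co-treated with compound plus 50 nM dopamine (EC20) for 90 min at 37 deg C to detect potentiation. Beta-arrestin recruitment was read as enzyme-fragment luminescence after 1 h at ambient temperature. Full response was set by 57 uM dopamine.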
D2 ag: human D2 receptor agonism in beta-arrestin assay; P14416; hit rate 0.084% among 360,000; DiscoveRx PathHunter D2 beta-arrestin, luminescence, 90 min; 100% = 57 uM dopamine signal; activation, % (concentration not given with the values); in the data active = activation above about 40%; inconclusive = about 15% to 40%; inactive = below about 15%; note: compound concentration not given in the record; the text of the record calls up to 30% inactive
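DiscoveRx PathHunter D2 beta-arrestin cells (2,100/well) attached overnight, then compound-stimulated 90 min at 37 C in HBSS/10 mM HEPES/0.1% Tween-20 buffer; beta-galactosidase complementation read by luminescence after 1 h at ambient temperature. Dopamine 57 uM final (EC100) as control.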
* = called active by the depositor; [ ] = remark or other dose.

The opening 2 compounds as a preview:
Screening CCOC(=O)N1CCN(C(=O)CN2C(=O)COc3ccc(C(C)(C)C)cc32)CC1 returned gsp antag -8%, gsp ag -9%, Six1-Eya2 blk 4, CtBP-E1A inh 5, D2 potentiator -8 and D2 ag -0.3.
Cc1cc(C)n2c(=S)[nH]nc2n1 was read as gsp antag 0%, gsp ag -9%, Six1-Eya2 blk 3, CtBP-E1A inh -3, D2 potentiator 6 and D2 ag -0.2.

Main list, repeating the preview:
Screening CCOC(=O)N1CCN(C(=O)CN2C(=O)COc3ccc(C(C)(C)C)cc32)CC1 returned gsp antag -8%, gsp ag -9%, Six1-Eya2 blk 4, CtBP-E1A inh 5, D2 potentiator -8 and D2 ag -0.3.
Cc1cc(C)n2c(=S)[nH]nc2n1 was read as gsp antag 0%, gsp ag -9%, Six1-Eya2 blk 3, CtBP-E1A inh -3, D2 potentiator 6 and D2 ag -0.2.
For COc1c(-c2ccc(O)c(O)c2)oc2cc(O)cc(O)c2c1=O the results were gsp antag 1%, Six1-Eya2 blk -25, CtBP-E1A inh -22, D2 potentiator -8 and D2 ag 0.5.
`CC1(C)CC(=O)C(C(O)c2ccc([N+](=O)[O-])cc2)C(C)(C)N1` (stereo not drawn) gave gsp antag -12%, gsp ag 12%[15.4 µM], Six1-Eya2 blk 3, CtBP-E1A inh 5, D2 potentiator 1 and D2 ag 0.2.
For CCN(CC)c1ccc(NC(=O)c2ccc3c(c2)c(C)c(C)n3C)cc1 the results were gsp antag -17%, gsp ag 15%[15.4 µM], Six1-Eya2 blk inconclusive, CtBP-E1A inh -1, D2 potentiator -23 and D2 ag 1.1.
`O=C(CSc1nc(-c2ccccc2)nc2ccccc12)Nc1cccc(C(=O)O)c1` gave gsp antag 3%, gsp ag 31%[15.4 µM], Six1-Eya2 blk inconclusive, CtBP-E1A inh -30, D2 potentiator -4 and D2 ag -1.4.
`Cc1c(Cl)cnc(NC(=O)CSc2n[nH]c(N)n2)c1Cl` gave gsp antag 1%, gsp ag 9%, Six1-Eya2 blk -7, D2 potentiator 2 and D2 ag -1.0.
Screening Cc1ccccc1OCC(=O)Nc1ccc(S(=O)(=O)Nc2onc(C)c2C)cc1 returned gsp antag -14%, gsp ag inconclusive, Six1-Eya2 blk -19, CtBP-E1A inh -23, D2 potentiator -1 and D2 ag -2.0.
`CC1CCCN(C(C(=O)NC2CCCCC2)c2cc3c(cc2[N+](=O)[O-])OCO3)C1` (stereo not drawn) gave gsp antag -8%, gsp ag -34%[inhibitor], Six1-Eya2 blk -8, CtBP-E1A inh -6, D2 potentiator -15 and D2 ag -1.6.
CCc1ccccc1NC(=O)N[C@H](C(=O)O)C(C)CC (stereo partly drawn) was read as gsp antag 6%, gsp ag inconclusive, Six1-Eya2 blk 2, CtBP-E1A inh 3, D2 potentiator -7 and D2 ag -4.3.
Cc1sc(NC(=O)CSc2nc(O)cc(=O)[nH]2)nc1-c1ccccc1 was read as gsp antag 1%, gsp ag -15%[15.4 µM], Six1-Eya2 blk -10, CtBP-E1A inh -8, D2 potentiator -4 and D2 ag -7.1.
CCOC(=O)Nc1ccc2c(c1)N(C(=O)CNC)c1ccccc1CC2 was read as gsp antag 4%, gsp ag -11%, Six1-Eya2 blk 1, CtBP-E1A inh 8, D2 potentiator -1 and D2 ag -4.0.
O=C(NCc1ccco1)C1CCN(S(=O)(=O)N2CCC3(CC2)OCCO3)CC1 was read as gsp antag -2%, gsp ag -54%[inhibitor], Six1-Eya2 blk 7, CtBP-E1A inh 14, D2 potentiator 1 and D2 ag 0.6.
`O=C(CNC(=O)c1ccc(Cl)cc1Cl)OC1CCCCC1=O` (stereo not drawn) gave gsp antag -9%, gsp ag 13%[15.4 µM], Six1-Eya2 blk -11, CtBP-E1A inh 8, D2 potentiator -8 and D2 ag 6.6.
Screening CCOC(=O)C1=C(c2ccccc2)NC(=O)NC1c1cc(OC)c(OC)c(OC)c1 (stereo not drawn) returned gsp antag 11%, gsp ag 1%, Six1-Eya2 blk 7, CtBP-E1A inh 8, D2 potentiator 6 and D2 ag 0.0.
For CCn1nccc1C(=O)Nc1nc2ccccc2n1CCN1CCCCC1 the results were gsp antag 6%, gsp ag 9%, Six1-Eya2 blk -16, CtBP-E1A inh -9, D2 potentiator -35 and D2 ag 0.4.
For COc1cc(S(=O)(=O)n2nnc3ccccc32)c(OC)cc1Cl the results were gsp antag 8%, gsp ag -3%, Six1-Eya2 blk 2, CtBP-E1A inh 2, D2 potentiator 2 and D2 ag -0.2.
Screening CC(=O)Nc1ccc(Oc2ncccn2)c(Cl)c1 returned gsp antag -3%, gsp ag inconclusive, Six1-Eya2 blk 1, CtBP-E1A inh 1, D2 potentiator -8 and D2 ag -3.9.
Screening COc1ccc(N2C(=O)C(Cl)=C(Nc3ccc(OC)cc3OC)C2=O)cc1 returned gsp ag 12%[15.4 µM], Six1-Eya2 blk -1, CtBP-E1A inh 3, D2 potentiator -2 and D2 ag 2.0.
Screening COc1ccc(OCC(=O)NC2CCSc3ccccc32)cc1 (stereo not drawn) returned gsp antag 1%, gsp ag -13%, Six1-Eya2 blk -1, CtBP-E1A inh 1, D2 potentiator 0 and D2 ag -0.7.
For CC(=O)N(CC1CCCO1)c1nnc(-c2ccccn2)s1 (stereo not drawn) the results were gsp antag -6%, gsp ag 8%, Six1-Eya2 blk -4, CtBP-E1A inh -2, D2 potentiator -4 and D2 ag -4.4.
For C=CCOc1c(CNc2ccc(C(=O)O)cc2)cccc1OCC the results were gsp antag inconclusive, gsp ag 1%, Six1-Eya2 blk 1, CtBP-E1A inh 6, D2 potentiator -15 and D2 ag 2.7.
For O=C1NCCN1Cc1ccccc1F the results were gsp antag -4%, gsp ag 39%, Six1-Eya2 blk 7, CtBP-E1A inh 2, D2 potentiator -12 and D2 ag -3.0.
Cc1cc(C)c(NC(=O)Cn2ncc3ccccc32)c(C)c1 was read as gsp antag 13%, gsp ag 32%[15.4 µM], Six1-Eya2 blk 8, CtBP-E1A inh 0, D2 potentiator -4 and D2 ag 1.5.
`Cc1cc(-c2csc(NCc3ccccc3)n2)c(C)n1C` gave gsp antag -1%, gsp ag -17%, Six1-Eya2 blk -10, CtBP-E1A inh -6, D2 potentiator 0 and D2 ag -1.3.
Screening COCC(=O)N(C)C[C@@H]1Oc2ncc(Br)cc2C(=O)N([C@@H](C)CO)C[C@H]1C returned gsp ag inconclusive, Six1-Eya2 blk -7, CtBP-E1A inh -1, D2 potentiator -6 and D2 ag -7.2.
Cc1onc(-c2c(F)cccc2Cl)c1C(=O)Nc1cccc(S(=O)(=O)NCc2ccco2)c1 was read as gsp ag 3%[15.4 µM], Six1-Eya2 blk -2, CtBP-E1A inh 0, D2 potentiator 6 and D2 ag 2.6.
Screening O=C(CSCc1ccc(Cl)cc1Cl)Nc1c[nH]c(=O)[nH]c1=O returned gsp antag -11%, gsp ag -27%, Six1-Eya2 blk 0, CtBP-E1A inh 8, D2 potentiator 9 and D2 ag -1.5.
`CCOC(=O)C1=C(c2ccccc2)NC(=O)NC1c1ccc(OC)c(OC)c1` (stereo not drawn) gave gsp antag 8%, gsp ag -4%, Six1-Eya2 blk -3, CtBP-E1A inh 5, D2 potentiator 1 and D2 ag 1.1.
For CCCC(=O)c1c(NCCO)cc(C)oc1=O the results were gsp antag 11%, gsp ag -18%, Six1-Eya2 blk -11, CtBP-E1A inh -5, D2 potentiator -9 and D2 ag -3.5.
Screening Cc1ccc(OCc2nc(C#N)c(NCCCn3ccnc3)o2)cc1 returned gsp antag 0%, gsp ag 11%, Six1-Eya2 blk -10, CtBP-E1A inh -15, D2 potentiator -1 and D2 ag 1.1.
`CCCc1nn(C)c(C(=O)Nc2cccc3ccccc23)c1Cl` gave gsp antag -7%, gsp ag -53%[inhibitor], Six1-Eya2 blk 11, CtBP-E1A inh -9, D2 potentiator -7 and D2 ag 3.3.
For Cc1ccc(C)c(OC(=O)c2ccncc2)c1 the results were gsp antag 7%, gsp ag 2%, Six1-Eya2 blk 10, CtBP-E1A inh 8, D2 potentiator -57 and D2 ag -2.5.
For C/C(NCc1ccccc1)=C(\C#N)C(=O)NCc1ccccc1 the results were gsp antag 4%, gsp ag -1%, Six1-Eya2 blk 0, CtBP-E1A inh 8, D2 potentiator -13 and D2 ag -0.3.
For COC(=O)C/C=N/N=C1/NC(=O)/C(=C/C(=O)O)S1 the results were gsp antag 11%, gsp ag -33%[inhibitor], Six1-Eya2 blk 0, D2 potentiator 2 and D2 ag -9.0.
`CCNc1ccc(C(=O)OCC(=O)NC(C)c2ccccc2)cc1[N+](=O)[O-]` (stereo not drawn) gave gsp antag -6%, gsp ag 0%, Six1-Eya2 blk 9, CtBP-E1A inh -6, D2 potentiator -11 and D2 ag -2.6.
O=C(N/N=C/c1cccc(Oc2ccccc2)c1)c1cccc(Br)c1 was read as gsp antag inconclusive, gsp ag -49%[inhibitor], Six1-Eya2 blk 0, CtBP-E1A inh 6, D2 potentiator -5 and D2 ag -1.0.
For COc1ccc(CNC(=O)C2CCCN2S(=O)(=O)c2ccc(S(=O)(=O)N(C)C)cc2)cc1 (stereo not drawn) the results were gsp antag 0%, gsp ag -1%, Six1-Eya2 blk 7, CtBP-E1A inh 6, D2 potentiator -12 and D2 ag -0.8.
Screening Nc1cc2c(cc1Br)-c1ccc(F)cc1C2=O returned gsp antag inconclusive, gsp ag inconclusive, Six1-Eya2 blk -26, CtBP-E1A inh -15, D2 potentiator 1 and D2 ag 0.4.
For CC1=C(C(=O)N(C)C)CC(CC(=O)NC2CC2)C(=O)N1CCC1=CCCCC1 (stereo not drawn) the results were gsp ag inconclusive, Six1-Eya2 blk 6, CtBP-E1A inh -17, D2 potentiator -1 and D2 ag -5.7.
Screening CC(C)CC(=O)Nc1ccc2c(c1)oc1ccccc12 returned gsp antag -5%, gsp ag -3%, Six1-Eya2 blk 9, CtBP-E1A inh -1, D2 potentiator 2 and D2 ag 1.5.
For Cc1c(C)c(C)c(S(=O)(=O)n2[nH]c(=O)c(CCO)c2C)c(C)c1C the results were gsp antag -5%, gsp ag 19%[15.4 µM], Six1-Eya2 blk 5, D2 potentiator -5 and D2 ag 3.7.
`CCOC1OC2C(CO)OC(n3cnc4c(N)ncnc43)C2O1` (stereo not drawn) gave gsp antag 18%, gsp ag -18%, Six1-Eya2 blk -1, CtBP-E1A inh 4, D2 potentiator -3 and D2 ag -4.4.
For COC(=O)c1ccc2c(c1)C(C)(C)C(/C=C/c1ccc(O)cc1)=[N+]2C the results were gsp antag 9%, gsp ag inconclusive, Six1-Eya2 blk -7, CtBP-E1A inh -16, D2 potentiator -19 and D2 ag -12.
`CC(C)(C)c1ccc(OCC(O)CNC(=O)c2ccccc2C(=O)O)cc1` (stereo not drawn) gave gsp antag -8%, gsp ag -19%, Six1-Eya2 blk 0, CtBP-E1A inh 3, D2 potentiator -9 and D2 ag -3.8.
